CtBP-E1A blk = CtBP/E1A binding inhibition; AlphaScreen GST-E1A/His-CtBP binding, 1536-well; active compounds read low; control for the full effect not named in the record; activity change, % (no concentration beside the values); 0.49% of 340,000 active; AID 651724; in the data active means activity change below about -65%; inconclusive means about -30% to -65%; inactive means above about -30%; note: % is set by controls: 0 for no effect and ±100 for the full control effect
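Protein mix (5X: 125 nM each GST-E1A, His-CtBP) was incubated with pinned compound 2 h at 37 deg C in dark, in 50 mM Tris pH 8.0 buffer with 300 mM NaCl. Glutathione donor and nickel acceptor beads followed; AlphaScreen signal read after 1 h.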
TRPV1 potentiator = potentiators of human vanilloid receptor 1 (TRPV1); Q8NER1; TRPV1-expressing cells, Fluo-8 calcium influx, capsaicin EC20 potentiation; host cell line not named in the record; control for the full effect not named in the record; AID 540277; potentiation, % at 8.33 µM; 0.02% of 320,000 active; active means potentiation above 80%; inconclusive means 30% to 80%; inactive means below 30%; note: 0% is about no effect
Target sequence (Q8NER1 whole entry, looked up): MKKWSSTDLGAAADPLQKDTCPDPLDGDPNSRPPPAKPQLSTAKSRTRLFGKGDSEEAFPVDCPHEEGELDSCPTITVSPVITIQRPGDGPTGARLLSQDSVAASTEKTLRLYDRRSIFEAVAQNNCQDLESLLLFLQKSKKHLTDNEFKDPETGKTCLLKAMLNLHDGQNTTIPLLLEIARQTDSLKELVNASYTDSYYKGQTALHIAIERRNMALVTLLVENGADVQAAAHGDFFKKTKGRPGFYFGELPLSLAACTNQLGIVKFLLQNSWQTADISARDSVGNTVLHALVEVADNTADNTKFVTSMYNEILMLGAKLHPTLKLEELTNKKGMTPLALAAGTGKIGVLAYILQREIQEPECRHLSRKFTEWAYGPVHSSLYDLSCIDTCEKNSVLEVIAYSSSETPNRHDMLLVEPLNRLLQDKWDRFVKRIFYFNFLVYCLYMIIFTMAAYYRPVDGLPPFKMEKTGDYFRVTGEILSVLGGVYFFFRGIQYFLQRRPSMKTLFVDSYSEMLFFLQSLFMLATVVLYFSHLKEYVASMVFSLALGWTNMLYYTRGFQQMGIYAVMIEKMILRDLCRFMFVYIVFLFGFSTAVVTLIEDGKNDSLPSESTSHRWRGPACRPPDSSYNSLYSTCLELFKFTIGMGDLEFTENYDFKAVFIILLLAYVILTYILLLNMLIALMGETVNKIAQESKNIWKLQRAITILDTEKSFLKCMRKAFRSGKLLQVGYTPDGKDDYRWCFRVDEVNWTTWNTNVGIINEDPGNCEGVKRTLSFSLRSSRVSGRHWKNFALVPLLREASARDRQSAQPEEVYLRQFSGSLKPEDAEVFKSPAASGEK
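TRPV1-expressing cells were cultured overnight at 35.5C and loaded with Fluo-8 calcium dye for 40 to 90 min at room temperature. After a 10 s baseline, compound was added and calcium influx was read kinetically for 3 min (ex 480/em 520 nm).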
PINK1 modulator = PINK1 expression modulation. PINK1 immunofluorescence, high-content cytometry, 24 h. Potency, µM (top dose mostly 76.6 µM), inactives show top-dose activation (PINK1 increase), most hits filed as activators. 0.2% of 410,000 active. AID 624263; active = well fitted activation curve with a large enough effect; inconclusive = small, poorly fitted or top-dose-only effect; inactive = flat fitted curve, though single readings scatter; cell line not stated here;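 note: potency is the fitted concentration of half-maximal effect; % of control where 0% means no effect; nearly all actives have a fitted effect of over 65% in size; a mitochondrial uncoupler was the plate control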
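PINK1 protein, normally rapidly degraded, was detected by immunofluorescence after 24 hour compound treatment of a stable cell line. Titration data (5 concentrations) came from laser-scanning cytometry, with CCCP-treated wells as controls.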
Sfp inh = Sfp phosphopantetheinyl transferase inhibition | Biochemical Sfp PPTase activity, qHTS | Potency, µM, for the others: max response, negative = inhibition, usual class: inhibitors | 3.5% of 310,000 active | Q9F4F7; active = well fitted inhibition curve with a large enough effect; inconclusive = small, poorly fitted or top-dose-only effect, or another doubt; inactive = no such curve, though single readings can be large or run the other way;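 note: the enzyme is Sfp with the accession as filed and its product quenches rhodamine fluorescence; potency is the fitted concentration of half-maximal effect; 0% = enzyme reaction without inhibitor and -100% = no enzyme wells; top concentration of the series not given in the record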
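With Hepes-Na pH 7.6 buffer containing 10 mM MgCl2, Sfp (15 nM) modified BHQ-2-YbbR (12.5 uM) using rhodamine-CoA (5 uM). Two reads 30 minutes apart at 525/598 nm yielded each well's rate.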
Six1-Eya2 inh = blocks human Six1 binding to Eya2; AlphaScreen GST-Six1/His-Eya2 binding, biochemical; active compounds read low; control for the full effect not named in the record; activity change, % (no concentration beside the values); 0.56% of 360,000 active; AID 651725; in the data active = activity change below about -65%; inconclusive = about -30% to -65%; inactive = above about -30%; note: % is set by controls: 0 for no effect and ±100 for the full control effect
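AlphaScreen with GST-Six1 and His-Eya2 (5X mix: 250 nM and 500 nM), glutathione donor and nickel acceptor beads; buffer 50 mM Tris pH 8.0, 300 mM NaCl, 1 mM TCEP; 1 h at 37 C in the dark.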
D2 agonist = agonists of human D2 dopamine receptor (beta-arrestin); DiscoveRx PathHunter D2 beta-arrestin, luminescence, 90 min; 100% = 57 uM dopamine signal; P14416; activation, % (concentration not given with the values); AID 624465; 0.084% of 360,000 active; in the data active = activation above about 40%; inconclusive = about 15% to 40%; inactive = below about 15%; note: compound concentration not given in the record; the text of the record calls up to 30% inactive
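DiscoveRx PathHunter D2 beta-arrestin cells (2,100/well) attached overnight, then compound-stimulated 90 min at 37 C in HBSS/10 mM HEPES/0.1% Tween-20 buffer; beta-galactosidase complementation read by luminescence after 1 h at ambient temperature. Dopamine 57 uM final (EC100) as control.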
D2 potentiator = positive allosteric modulators of human D2 dopamine receptor | P14416 | DiscoveRx D2 beta-arrestin cells, luminescence, 90 min; 100% = 57 uM dopamine signal | potentiation, % (no concentration beside the values) | 0.23% of 360,000 active | AID 624464; active = potentiation of 50% or more; inconclusive = 30% to 50%; inactive = 30% or less;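 note: compound concentration not given in the record; tested on top of an EC20 dose of dopamine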
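D2 cells co-treated with compound plus 50 nM dopamine (EC20) for 90 min at 37 deg C to detect potentiation. Beta-arrestin recruitment was read as enzyme-fragment luminescence after 1 h at ambient temperature. Full response was set by 57 uM dopamine.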
The depositor's hits bear a star; ? = inconclusive; / = no result given; [ ] = remark or other dose.

SMILES	CtBP-E1A blk	TRPV1 potentiator	PINK1 modulator	Sfp inh	Six1-Eya2 inh	D2 agonist	D2 potentiator
O=C(CNC(=O)C1COc2ccccc2O1)N/N=C\c1ccc(Cl)cc1 (centres undefined)	/	/	2.3%	-3%	-3	0.0	-13
COc1ccc(OC)c(S(=O)(=O)N2CCCCC2C(=O)O)c1 (centres undefined)	0	10	1.0%[38.3 µM]	6%	0	-2.4	-6
O=C(Nc1ccc(Cl)c(S(=O)(=O)N2CCCCC2)c1)c1cccnc1	0	-12	1.4%	/	-3	-0.8	-4
Cc1onc(-c2ccccc2)c1C(=O)NC(C)C	6	0	0.7%	18%	9	-3.4	-9
CCCCc1ccc(CC(=O)O)cc1	4	-5	1.2%	?	6	-3.5	-7
COc1ccc(-c2nnc(N3CCCCC3)c3ccccc23)cc1	14	-13	5.3%	12%	9	-1.1	-9
CC1CCCCN1CCCNC(=O)Cn1c(=O)c2cccn2c2ccccc21 (centres undefined)	2	5	-0.1%	13%	-2	-1.7	-3
CC(=O)c1c(N2CCN(c3ccc(F)cc3)CC2)nc(=S)n(Cc2ccccc2)c1C	-13	5	22%	-3%	-1	-3.7	-22
Cc1cccc(OCc2nnc(SCC(=O)NCC3CCCO3)n2C)c1 (centres undefined)	2	10	-0.4%	14%	5	-0.7	-4
CSC1=NCCN1C(=O)C(C)(C)Oc1ccc(Cl)cc1	0	/	6.8%	/	5	-1.6	-8
Cc1csc(=O)n1CCC(=O)OCC(=O)NCc1ccccc1	-8	/	-1.3%	/	10	-2.1	-14
O=C(NCc1ccccn1)C(=O)NCC1OCCN1S(=O)(=O)c1ccc(Br)cc1 (centres undefined)	11	-4	4.4%	8%	-1	-0.3	-17
Cc1ccc(CNC(=O)C2CCCC2)cc1	-2	/	-0.3%	/	7	-0.2	2
CC(=O)C1=NN(c2ccccc2)C(c2ccc3c(c2)OCO3)N1c1ccc(N2CCOCC2)cc1 (centres undefined)	-19	-2	1.0%	5%	-27	-1.4	-12
CCCC(=O)Nc1ccc(C(=O)COC(=O)C2CC2C)cc1 (centres undefined)	/	0	1.2%	/	3	-4.6	-8
CCOc1ccc(S(=O)(=O)Nc2ccc(F)cc2)c(C)c1C	-3	6	18%[38.3 µM]	-5%	4	-0.6	-2
CC(C(=O)Nc1ccccc1-c1ccccc1)N1CCN(S(=O)(=O)c2ccccc2)CC1 (centres undefined)	5	-8	0.4%	10%	0	0.7	-7
CC(=O)c1cccc(-c2cnc3c(NC=O)cc(-c4ccc(F)cc4)cn23)c1	4	/	3.4%	/	-15	-8.3	-2
Cc1ccc([N+](=O)[O-])cc1NC(=O)c1c(-c2ccccc2)noc1C	-9	-7	1.5%	6%	2	0.1	-3
CCC(C)C(=O)Nc1cc(C(=O)OC)ccc1C(=O)OC (centres undefined)	0	2	17%[38.3 µM]	-9%	5	-0.9	-16
CCc1nc2ccc(F)cc2c(C(=O)NC2CCCCC2C)c1C (centres undefined)	-4	-11	/	-11%	9	0.5	-8
Cc1ccc(N2C(=O)CC(NNc3nc4ccccc4s3)C2=O)cc1 (centres undefined)	9	2	3.6%	7%	0	0.2	-22
CCC(C)NC(=O)c1ccccc1C(=O)NC(C)CC (centres undefined)	-2	4	?	16%	4	-0.5	-7
COC(=O)c1cccc(NS(=O)(=O)c2ccc(OC)c(C(=O)N3CCOCC3)c2)c1C	0	0	-0.2%	-1%	-3	-4.2	-5
CN(C)/C=C/C(=O)c1ccc(N2CCN(c3ncc(C(F)(F)F)cc3Cl)CC2)cc1	-5	0	?	-18%	-13	-2.7	-5

Sorted by molar mass (smallest number first): part of the list above.
SMILES	CtBP-E1A blk	TRPV1 potentiator	PINK1 modulator	Sfp inh	Six1-Eya2 inh	D2 agonist	D2 potentiator
Cc1ccc(CNC(=O)C2CCCC2)cc1	-2	/	-0.3%	/	7	-0.2	2
Cc1onc(-c2ccccc2)c1C(=O)NC(C)C	6	0	0.7%	18%	9	-3.4	-9
CCC(C)NC(=O)c1ccccc1C(=O)NC(C)CC (centres undefined)	-2	4	?	16%	4	-0.5	-7
CCC(C)C(=O)Nc1cc(C(=O)OC)ccc1C(=O)OC (centres undefined)	0	2	17%[38.3 µM]	-9%	5	-0.9	-16
CSC1=NCCN1C(=O)C(C)(C)Oc1ccc(Cl)cc1	0	/	6.8%	/	5	-1.6	-8
Cc1csc(=O)n1CCC(=O)OCC(=O)NCc1ccccc1	-8	/	-1.3%	/	10	-2.1	-14
Cc1ccc([N+](=O)[O-])cc1NC(=O)c1c(-c2ccccc2)noc1C	-9	-7	1.5%	6%	2	0.1	-3
Cc1ccc(N2C(=O)CC(NNc3nc4ccccc4s3)C2=O)cc1 (centres undefined)	9	2	3.6%	7%	0	0.2	-22
Cc1cccc(OCc2nnc(SCC(=O)NCC3CCCO3)n2C)c1 (centres undefined)	2	10	-0.4%	14%	5	-0.7	-4
CC(C(=O)Nc1ccccc1-c1ccccc1)N1CCN(S(=O)(=O)c2ccccc2)CC1 (centres undefined)	5	-8	0.4%	10%	0	0.7	-7
O=C(NCc1ccccn1)C(=O)NCC1OCCN1S(=O)(=O)c1ccc(Br)cc1 (centres undefined)	11	-4	4.4%	8%	-1	-0.3	-17

Going on with the list:
SMILES	CtBP-E1A blk	TRPV1 potentiator	PINK1 modulator	Sfp inh	Six1-Eya2 inh	D2 agonist	D2 potentiator
COc1ccc(CNc2nccs2)cc1	/	5	-0.5%	12%	13	-2.5	-10
COc1ccc(CCNC(=O)Cc2ccc(Cl)cc2)cc1OC	/	-9	1.2%	9%	-1	-2.3	-7
CCC(C)NS(=O)(=O)c1ccc(NS(=O)(=O)c2ccccc2[N+](=O)[O-])cc1 (centres undefined)	11	-7	-0.8%	-16%	-1	-5.7	-4
O=C1C2C3C=CC(C3=C3CCCCC3)C2C(=O)N1c1ccccc1 (centres undefined)	2	-15	-0.3%	?	5	-0.4	2
NC(=O)CN1CCN(CCN2C(=O)c3cccc4cccc(c34)C2=O)CC1	-19	0	-1.6%	14%	-11	1.2	-12
CCn1cc(Cl)c(C(=O)N2N=C3/C(=C/c4cccs4)CCCC3C2c2cccs2)n1 (centres undefined)	-3	7	-8.8%[38.3 µM]	-4%	-2	1.0	-3
COc1ccc(C(c2nnnn2-c2ccc3c(c2)OCCO3)N2CCN(C/C=C/c3ccccc3)CC2)cc1 (centres undefined)	?	/	-0.2%	/	-24	-4.2	-18
Cc1sc(NC(=O)c2ccco2)c(CN2CCN(c3ccccc3)CC2)c1C	-2	24	0.6%	4%	-9	0.2	-31
CCOc1ccc(NC(=O)c2cc(C)nc3ccccc23)cc1	/	9	1.4%	15%	1	2.4	-5
Cc1c(C(=O)N2CCN(C(=O)c3ccccc3)CC2)oc2ccc(F)cc12	-1	-9	0.5%	/	-1	1.9	0
Nc1nc(CSc2nc3ccccc3[nH]2)cs1	-18	3	-1.1%	45µM*	0	-0.4	13
CN1C(=O)C(Cc2cnc[nH]2)NC1=S (centres undefined)	/	-14	-0.5%	79µM*	-16	-4.2	-9
COc1ccc(S(=O)(=O)N2CCOCC2)cc1NC(=O)Cc1coc2cc(C)ccc12	-4	4	1.1%	/	-4	-0.8	-6
Cc1ccc(NC(=O)c2nnn(CC(=O)Nc3ccccc3)c2N)cc1C	29	-4	2.9%	15%	12	-2.9	-13
CC(C)OCCCNC(=O)c1ccc(NC(=O)C2=CSCCO2)cc1	6	-14	0.0%	11%	1	-3.7	-4
CCOC(=O)c1c(C)nc2ncccn12	-2	4	-0.9%	15%	1	-2.8	-1
CC(C)NC(=O)C1(C)CCN1Cc1ccc(C(F)(F)F)cc1 (centres undefined)	11	/	2.2%	/	9	-3.5	-5
COc1ccc(C(=O)NCc2nc(C)c(C)s2)cc1OC1CCN(C(C)C)CC1	5	-4	-1.3%	21%	-5	2.5	2
COn1cnnc1-c1ccccc1	7	14	-1.1%	-10%	11	0.8	1
O=C(c1ccccc1)c1nn(-c2ccccc2)c(=O)cc1C(F)(F)F	-75*	-14	-3.3%	4%	?	-4.7	-26
CCOc1ccc(NC(=S)NC(=O)c2cncc(Br)c2)cc1	4	/	4.4%	/	2	-7.1	-8
O=C(CSc1ncnc2sccc12)Nc1ccccc1F	-8	-17	0.3%	5%	1	1.4	-4
CSCC(=O)N1CCC(CCC(=O)NC2CC2)CC1	/	-12	2.2%	12%	7	-8.2	-8
CCN(CC)C(=O)c1sc(NC(=O)c2cccc([N+](=O)[O-])c2)c(C#N)c1C	-1	12	?	11%	0	-3.0	-9
Cc1ccc(N(Cc2cc(=O)[nH]c3ccccc23)C(=O)c2ccco2)cc1	0	4	-0.2%	-5%	-4	1.2	9
The listing continues:
SMILES	CtBP-E1A blk	TRPV1 potentiator	PINK1 modulator	Sfp inh	Six1-Eya2 inh	D2 agonist	D2 potentiator
O=C(NCCc1ccccn1)c1ccc(OC2CCN(CCc3ccccc3)CC2)cc1	-3	23	0.8%	-9%	5	-5.8	-52
CC(C)c1nnc(NC(=O)CSc2nc3ccccc3s2)s1	5	12	1.7%	9%	4	-2.9	3
O=C(NCc1cccs1)Nc1cc(Cl)ccc1Cl	1	19	0.6%	6%	5	-3.0	-12
COc1ccc(-n2cnc3scc(-c4ccccc4)c3c2=O)cc1	5	-2	0.0%	8%	-6	0.5	-9
CCOc1ccc(N(CC(=O)Nc2cc(Cl)ccc2C)S(C)(=O)=O)cc1	3	0	7.8%	26%	-1	-2.7	0
Cc1ccc(CN2CCc3[nH]c(=S)[nH]c(=O)c3C2)cc1	/	-16	2.4%	-13%	0	2.5	-12
COc1ccc(NC(=O)C2CCCN2C(=O)NC2CCCCC2)cc1OC (centres undefined)	2	2	-2.7%	15%	-2	-3.4	1
Cn1c(COc2ccc(Cl)cc2)nc2ccccc2c1=O	2	13	-0.8%[38.3 µM]	12%	-1	-3.0	5
CCOc1ccc(N2C(=O)CC(N(Cc3ccco3)C(=O)CCC(=O)O)C2=O)cc1 (centres undefined)	-15	3	1.4%	10%	9	-3.0	3
COC(=O)C1=C(C)OC(N)=C(C#N)C1C1CCCCC1 (centres undefined)	-3	/	-3.8%[38.3 µM]	8%	-1	0.4	-9
Cc1cccc(N(CC(=O)N2CCc3ccccc3C2)S(C)(=O)=O)c1C	7	9	0.6%	3%	-5	-2.5	0
Cc1ccc(OCCNC(=O)CCNS(=O)(=O)c2ccc(Br)cc2)cc1	-19	7	-2.3%	/	14	-10	13

An unsorted share of the library; any-hit rate near 3.7%.
